# Screens from PubChem.
# Mtb H37Rv: M. tuberculosis H37Rv growth inhibitors, H37Rv strain (AID 1626). M. tuberculosis H37Rv growth inhibition; higher % means a stronger effect. 0.95% of 220,000 active. inhibition, % at 10 µM, or IC50 in µM where a hit was titrated;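 active = confirmed in a dose series; inconclusive = inhibition above 80% but not taken into the dose series; inactive = below 80% or under 30% at every dose of the series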;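 note: bacteria incubated seven days before Alamar blue readout; 0% = bacteria only wells and 100% = bacteria with antibiotic wells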
# YopH PTP inh: YopH tyrosine phosphatase inhibitors, primary screen, biochemical, fluorescence Ex485/Em525 | 0.16% of 140,000 active | inhibition, %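 (about 10 µM by stock and volumes)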 | YopH tyrosine phosphatase [Yersinia enterocolitica] | AID 898, 2007;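 active = inhibition of 50% or more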;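 note: controls were vehicle for no effect and minimum signal wells for full effect; inactives centre near -20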
# RecA intein inh: Mtb RecA intein splicing inhibitors, primary screen, biochemical, fluorescence, HTS | 0.75% of 290,000 active | Protein RecA (Mycobacterium tuberculosis (strain ATCC 25618 / H37Rv)), P9WHJ3 | inhibition, %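 (about 9 µM by stock and volumes)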 | AID 2221, 2009 | cell-free RecA intein splicing; in the data active = inhibition above about 30%; inconclusive = no clear call, values can overlap the other calls;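 note: 0% = vehicle wells and 100% = reference inhibitor control wells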
# Target sequence (P9WHJ3 whole entry, looked up): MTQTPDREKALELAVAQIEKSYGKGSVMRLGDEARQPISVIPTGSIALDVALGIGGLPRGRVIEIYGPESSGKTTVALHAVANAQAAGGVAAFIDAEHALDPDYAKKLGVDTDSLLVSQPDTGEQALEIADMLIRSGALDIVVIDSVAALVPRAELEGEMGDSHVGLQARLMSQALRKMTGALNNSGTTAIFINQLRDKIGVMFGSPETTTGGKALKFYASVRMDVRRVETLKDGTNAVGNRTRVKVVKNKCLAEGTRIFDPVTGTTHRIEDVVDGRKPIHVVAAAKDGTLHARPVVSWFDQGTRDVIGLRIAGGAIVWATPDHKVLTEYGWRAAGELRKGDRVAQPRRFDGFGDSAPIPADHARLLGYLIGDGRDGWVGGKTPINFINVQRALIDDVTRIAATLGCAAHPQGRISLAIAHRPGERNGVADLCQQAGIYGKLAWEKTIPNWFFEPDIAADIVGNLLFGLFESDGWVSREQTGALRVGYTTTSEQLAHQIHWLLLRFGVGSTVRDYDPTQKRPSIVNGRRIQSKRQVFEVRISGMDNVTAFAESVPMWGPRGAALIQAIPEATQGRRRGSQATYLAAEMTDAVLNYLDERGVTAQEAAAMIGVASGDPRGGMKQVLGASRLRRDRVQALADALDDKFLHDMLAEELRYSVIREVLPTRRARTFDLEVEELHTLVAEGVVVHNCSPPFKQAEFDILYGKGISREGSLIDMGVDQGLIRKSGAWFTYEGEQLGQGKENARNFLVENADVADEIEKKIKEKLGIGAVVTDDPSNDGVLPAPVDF
# Arbovirus anti: antivirals against arbovirus infection, primary screen, cell-based, full library, 10K replicate subset. 0.37% of 200,000 active. inhibition, % at 10 µM. AID 1251, 2008. arbovirus infection cell-based antiviral screen;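 active = inhibition from about 30%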;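 note: bluetongue infection of BSR cells; cell survival read as ATP light after 72 h; 0% = infected wells without compound and 100% = uninfected wells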
# Mtb betalactam: beta-lactam sensitization of Mtb H37Rv, H37Rv; 0.27% of 330,000 active; AID 434955, 2010; inhibition, % at 25 µM; M. tuberculosis H37Rv growth with meropenem, percent inhibition; hits of this screen are not shown here;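 active = about 74% or more and at least 40 points above the plate without the antibiotic, then above 30% in a dose series; inconclusive = first-round hits that could not be retested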;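 note: growth measured after seven days incubation then overnight dye step; 0% = bacteria only wells and 100% = bacteria with antibiotic; twin plates without the antibiotic show which effects depend on it; some results filed as inactive read as strong as hits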
# Arbovirus anti repeat: recorded beside Arbovirus anti, whose call it bears; inhibition, %; measured here: 10K subset replicate screen; many hits read low in the repeat;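 first of two repeat runs on a subset; 0% = infected and 100% = uninfected wells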
# * marks the source's active call; other numbers are inactive results; i = inactive; ? = inconclusive; nt = not tested or not shown.
SMILES,Mtb H37Rv,YopH PTP inh,RecA intein inh,Arbovirus anti,Mtb betalactam,others
Cc1cc2cc(CNS(=O)(=O)c3ccc4ccccc4c3)ccc2n1C,6%,-9,5.7,-11,-7,
CSC1=C(C#N)C(=O)NC(c2ccc(Cl)cc2)S1 (stereo not given),-1%,nt,9.7,nt,2,
CCCCC(=O)NC(c1ccc(Cl)cc1)c1ccc2cccnc2c1O (stereo not given),nt,nt,-4.0,nt,1,
CCOC(=O)N1CCN(CCC(=O)Nc2cc([N+](=O)[O-])ccc2OC)CC1,2%,-25,1.8,9,-14,
CC(=O)Nc1ccc(C2=NN(c3ccccc3)C(c3ccccc3)C2)cc1 (stereo not given),nt,nt,-5.5,nt,6,
Cc1cccc(OCC(=O)N/N=C/c2ccccc2C(=O)O)c1,8%,nt,0.1,17,-2,
CCn1c(SCC(=O)OC(C)C)nnc1-c1ccccc1OC,4%,nt,1.3,10,0,
O=C(Nc1ccnn1C1CCN(Cc2c[nH]c3ccccc23)CC1)c1ccccc1,nt,nt,0.5,nt,4,
Nn1c(CSc2nc3ccccc3o2)nnc1CSc1nc2ccccc2o1,6%,14,nt,-1,5,
CSc1nnc(-c2cc3ccccc3cc2O)n1C,5%,-39,-10,3,2,
O=C(CCS(=O)(=O)c1ccccc1)NCc1ccccc1,nt,nt,-1.0,nt,?,
CCN(CC)CCNC(=O)c1c(O)c2c([nH]c1=O)CCCC2,-9%,-40,0.3,5,4,
COc1cccc(NC(=O)c2ccc3c(SCC(=O)O)c4c(nc3c2)CCCC4)c1,7%,nt,17,1,2,
Cc1ccc(OCC(=O)NCCc2nc3ccccc3[nH]2)c(C)c1,-6%,nt,1.5,2,-8,
N#CC1=C(N)Oc2n[nH]c(-c3ccc(F)cc3)c2C1c1cccnc1 (stereo not given),nt,-5,75*,5,nt,
Cc1csc(C(=O)O)c1NC(=O)c1cccc([N+](=O)[O-])c1,-1%,nt,4.2,3,-5,
CC(C)CNC(=O)CSc1nc2scc(-c3ccccc3)c2c(=O)[nH]1,-5%,-14,3.1,19,-7,
CC(=O)c1cnc(Nc2ccc(C)cc2)s1,7%,nt,-2.3,-2,-8,
O=C(c1cccc(Cl)c1)N1CCCC(C(=O)N2CCN(c3ccccc3)CC2)C1 (stereo not given),nt,nt,-0.4,nt,-4,
CCC1(C(=O)OC)NC(c2ccco2)C2C(=O)N(c3ccc(C)cc3)C(=O)C21 (stereo not given),-6%,-33,1.5,5,-2,
CCO[C@@H]1OC(C(=O)N2CCN(C)CC2)=C[C@H](C2CCCCC2)[C@H]1CCCO,-7%,nt,0.1,0,6,
COc1ccc(CN2CC(C(=O)NCCCN3CCCCC3)CC2=O)cc1 (stereo not given),nt,nt,-0.1,nt,-5,
O=C(NNC(=O)c1ccccc1C(F)(F)F)c1csc(N2CCOCC2)n1,nt,nt,-8.3,nt,-12,
CCCCC1CCC(c2nc(-c3ccccn3)no2)CC1 (stereo not given),23%,-35,12,-28,24,
CCc1ccc(N(C(=O)c2csnn2)C(C(=O)NC(C)(C)C)c2cccnc2)cc1 (stereo not given),3%,nt,-0.5,-2,6,
CCOc1ccc(C(=O)C(C)OC(=O)CN2C(=O)NC(C)(C)C2=O)cc1 (stereo not given),nt,nt,-1.9,nt,1,
CN(C)S(=O)(=O)N1CCC(C(=O)O)(c2ccccc2)CC1,2%,-29,1.3,2,-1,
COc1ccccc1CNC(=O)c1cc(-c2ccccc2)nn1Cc1cc(C)no1,nt,nt,7.1,nt,1,
O=C(NCCCN1CCN(C2CCCCC2)CC1)Nc1ccccc1C(F)(F)F,-1%,-27,0.9,-5,-10,
O=C(CCc1ccccc1)N1CCN(S(=O)(=O)c2cccs2)CC1,nt,nt,2.2,nt,-10,
COC(=O)C1=C(C)N(CCc2ccccc2)C(=O)/C1=C\c1ccco1,-3%,-10,-2.6,-2,8,
CC1(C)CC(=O)CC2(C1)NCC(c1ccccc1Cl)c1c2[nH]c2ccccc12 (stereo not given),-4%,nt,11,-28,-6,
CN1CCN(C(c2ccc(C(F)(F)F)cc2)c2cc(Cl)c3cccnc3c2O)CC1 (stereo not given),nt,nt,44*,nt,-4,
O=C(CSc1nc2ccc([N+](=O)[O-])cc2[nH]1)NC1CCCCC1,-3%,2,1.0,13,-7,
COc1cccc(C2C3=C(N=c4s/c(=C\c5ccc(O)cc5)c(=O)n42)c2ccccc2CC3)c1OC (stereo not given),7%,-53,-3.0,22,71,
O=C(CN1CCN(C(=O)C2CCCO2)CC1)Nc1ccc(Cl)cc1 (stereo not given),nt,nt,-3.0,nt,-5,
NC1=NC2(CCCCC2)n2c(nc3ccccc32)N1,6%,11,-0.4,-1,-9,
COc1ccccc1NC(=O)c1oc2ccccc2c1NC(=O)c1ccco1,-1%,-42,-0.4,-11,3,
COc1ccccc1C(=O)Nc1nnc(S(=O)(=O)N2CCOCC2)s1,nt,nt,-0.6,nt,5,
Cc1ccc(-c2nc(=S)c3c(n2Cc2ccco2)CCCC3)cc1,-9%,-29,nt,9,nt,
N#C/C(=N\Nc1ccccc1)C(=N)N1CCOCC1,4%,-7,6.1,-11,-4,
CCN1C(=O)c2cccc3c(S(=O)(=O)Nc4ccncc4)ccc1c23,-13%,-15,-115,-9,-3,
O=C(Cc1ccc(Cl)cc1)Nc1ccc(N2CCCC2)cc1,4%,-16,0.7,4,36,
COc1ccccc1C/C(N)=N/O,4%,-27,-0.3,-4,-1,
O=C(Cc1ccc(O)cc1)NCCNC(=S)NCc1ccccc1,-10%,nt,1.5,nt,-9,
O=C1c2cccc3cccc(c23)C(=O)N1OS(=O)(=O)c1ccc(Br)cc1,-2%,-9,0.3,0,4,
Cc1cc(CNC(=O)COc2ccccc2F)c2ccccc2n1,-6%,nt,-0.8,6,-7,
Cc1[nH]c2ccccc2c1C(=O)C(=O)N1CCN(C(=O)c2ccco2)CC1,-1%,nt,-3.9,20,6,
O=C(CSc1nnc(COc2ccc(Cl)cc2)o1)N1c2ccccc2CCc2ccccc21,12%,-30,19,-11,1,
Fc1cccc(NC(=S)Nc2cccnc2)c1,10%,nt,nt,7,6,
C=CCSC1=N/C(=C\c2ccsc2)C(=O)S1,-4%,-23,0.8,-10,-13,Arbovirus anti repeat=3
CCN1CCN(c2cc3c(cc2F)c(=O)c(S(=O)(=O)c2ccccc2)cn3C)CC1,nt,nt,-2.4,nt,-1,
O=C(/C=C/c1ccc(Cl)c([N+](=O)[O-])c1)c1cccnc1,1.2µM*,nt,-4.2,-4,100,
COCCn1c(=O)[nH]c2cc(C(=O)NC3CCCCCC3)ccc2c1=O,-3%,-29,-1.8,-3,0,Arbovirus anti repeat=-7
CN1CCN(NC(=O)c2ccc(S(=O)(=O)N3CC4(C)CC3CC(C)(C)C4)cc2)CC1 (stereo not given),-2%,nt,0.1,nt,4,
O=C(CN1C(=O)NC2(CCCC2)C1=O)N1CCN(S(=O)(=O)c2ccccc2[N+](=O)[O-])CC1,nt,nt,2.1,nt,-9,
COc1ccc2c(c1)c(=O)oc1cc(O)ccc12,51%,nt,-1.1,-1,-4,
C=C(C)C(=O)Nc1cccc(C2=NOC3(C2)C[C@@H](C(N)=O)N(C(=O)c2ccc(Cl)cc2)C3)c1 (stereo not given in full),-5%,nt,nt,nt,2,
Cc1ccc(C(=O)NCC(=O)OCC(=O)N(CC(C)C)c2c(N)n(Cc3ccccc3)c(=O)[nH]c2=O)cc1C,nt,nt,0.0,nt,-3,
CCN1C(=O)c2ccccc2S(=O)c2ccc(C(=O)NCCN(CC(C)C)CC(C)C)cc21 (stereo not given),nt,nt,1.3,nt,2,
# (further entries)
SMILES,Mtb H37Rv,YopH PTP inh,RecA intein inh,Arbovirus anti,Mtb betalactam,others
CC(=O)N1c2ccccc2C(=O)C1N(C)c1ccc(C)cc1 (stereo not given),nt,nt,4.8,nt,-1,
CN1CCN(Cc2c(O)ccc3cc(-c4ccccn4)c(=O)oc23)CC1,0%,nt,nt,2,-8,
CC1CC(=O)C2=C(C1)Nc1nc3ccccc3n1C2c1cccnc1 (stereo not given),17%,nt,-0.6,-9,1,
Cc1cc(C)n(C(=O)Cc2cn3ccsc3n2)n1,-4%,2,-0.1,-4,-2,
CCCC(=O)Nc1nc2ccc(NC(=O)c3ccccc3F)cc2s1,5%,nt,6.4,-16,5,
Cc1ccc(N(CC#N)C(=O)CS(=O)(=O)c2cccc([N+](=O)[O-])c2)cc1,nt,nt,7.9,nt,79,
Brc1ccc2c(c1)C(c1cccs1)=NNC(c1cccnc1)=N2,-3%,-28,-4.3,-4,0,
CCOC(=O)CSC1=C(C#N)C(c2ccc(F)cc2)C(C(C)=O)=C(C)N1 (stereo not given),76%,-43,3.0,5,90,
O=C1N[C@@H](Cc2cn(S(=O)(=O)c3ccc(F)cc3)c3ccccc23)C(=O)N[C@H]1Cc1ccccc1,0%,nt,-2.7,nt,-13,
CCn1ccnc1CN(C)C(=O)CCc1nnc(CCCc2ccccc2)o1,-4%,nt,5.1,1,-7,
O=C(COc1ccccc1Cc1ccccc1)NCCCN1CCOCC1,-3%,nt,0.7,nt,1,
COc1ccccc1OCCCCOc1ccccc1C(C)=O,8%,-9,4.9,14,1,

# Molecules above with a COOH group (4):
SMILES,Mtb H37Rv,YopH PTP inh,RecA intein inh,Arbovirus anti,Mtb betalactam,others
Cc1cccc(OCC(=O)N/N=C/c2ccccc2C(=O)O)c1,8%,nt,0.1,17,-2,
COc1cccc(NC(=O)c2ccc3c(SCC(=O)O)c4c(nc3c2)CCCC4)c1,7%,nt,17,1,2,
Cc1csc(C(=O)O)c1NC(=O)c1cccc([N+](=O)[O-])c1,-1%,nt,4.2,3,-5,
CN(C)S(=O)(=O)N1CCC(C(=O)O)(c2ccccc2)CC1,2%,-29,1.3,2,-1,

# Pulled by compound from the entries so far (6):
SMILES,Mtb H37Rv,YopH PTP inh,RecA intein inh,Arbovirus anti,Mtb betalactam,others
Cc1cc(C)n(C(=O)Cc2cn3ccsc3n2)n1,-4%,2,-0.1,-4,-2,
O=C1N[C@@H](Cc2cn(S(=O)(=O)c3ccc(F)cc3)c3ccccc23)C(=O)N[C@H]1Cc1ccccc1,0%,nt,-2.7,nt,-13,
Cc1ccc(N(CC#N)C(=O)CS(=O)(=O)c2cccc([N+](=O)[O-])c2)cc1,nt,nt,7.9,nt,79,
COc1ccccc1OCCCCOc1ccccc1C(C)=O,8%,-9,4.9,14,1,
CC1CC(=O)C2=C(C1)Nc1nc3ccccc3n1C2c1cccnc1 (stereo not given),17%,nt,-0.6,-9,1,
CN1CCN(Cc2c(O)ccc3cc(-c4ccccn4)c(=O)oc23)CC1,0%,nt,nt,2,-8,

# Continuation.
SMILES,Mtb H37Rv,YopH PTP inh,RecA intein inh,Arbovirus anti,Mtb betalactam,others
O=C(NC(Cc1ccccc1)C(=O)Oc1ccc2c(C(F)(F)F)cc(=O)oc2c1)OCc1ccccc1 (stereo not given),5%,-23,i,12,-13,
COc1cc(C(=O)NCCC(=O)NCCN2CCCCCC2)cc(OC)c1OC,-6%,-49,-7.3,4,?,
COc1ccc(C(C(O)C(=O)c2c[nH]c3ccccc23)N2CCN(c3ccc(OC)cc3)CC2)cc1 (stereo not given),8%,-29,1.7,-12,96,
COc1ccc(S(=O)(=O)N2CCN(C(=O)c3cccs3)CC2)cc1,1%,-36,1.6,10,-6,

# An excerpt (hit frequency here may not be typical).
